miR-21 FLuc: qHTS Assay for Modulators of miRNAs and/orActivators of miR-21 | HeLa miR-21 FLuc reporter, luciferase, 48 h | Potency, µM (series often up to 38.3 µM), inactives show at the top dose reporter change, positive = more light | 340,000 tested, under 10 active | AID 2288, 2010; active = well fitted rising curve with a large enough effect; inconclusive = small, poorly fitted or top-dose-only effect; inactive = no such curve, though single readings can be large or run the other way;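 also: % of control where 0% means no effect; miR-21 action dims this reporter so a rising signal means less miR-21 action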
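HeLa cells endogenously expressing miR-21, stably carrying CMV-driven firefly luciferase with a downstream miR-21 binding site, 2000 cells/well. Titrations up to approximately 40 uM, 48 hours; luciferase luminescence read.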
Rango release inh: qHTS Assay for Inhibitors of RanGTP induced Rango (Ran-regulated importin-beta cargo) - Importin beta complex dissociation. Potency, µM (doses to about 46.1 µM), inactives show at the top dose activity change, negative = inhibition. AID 540253, 2011. Biochemical FRET Rango-importin beta, RanGTP-induced dissociation. hit rate 0.071% among 340,000. Snurportin-1 (Homo sapiens) + GTP-binding nuclear protein Ran (Homo sapiens) + Importin …; active means falling FRET ratio curve, often poorly fitted, with flat reads before Ran was added; inconclusive means other falling curves, or compound fluorescence or quenching; inactive means flat or rising ratio curve;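 also: potency is read from the fitted curve at half-maximal effect; % of control where 0% means no effect; nearly all actives have a fitted effect of over 45% in size; -100% = wells without RanGTP and RCC1; the record marks most hits as doubtful in a second field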
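Compounds sat 5 min at room temperature with 0.1 uM Rango biosensor plus 0.25 uM importin beta, then FRET pre-read. RanGTP-RCC1 (0.6 uM Ran, 2mM GTP, 0.2 uM RCC1) added for 45 min, and the CFP/YFP post-read measured blocked complex dissociation.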
GLA inh pH 4.5: qHTS Assay for Inhibitors of Human alpha-Galactosidase at pH 4.5; purified enzyme, 4-MU-alpha-Gal fluorescence, pH 4.5; activity change, negative = inhibition, % at 105 µM; 230,000 tested, under 10 active; inconclusive = small, poorly fitted or top-dose-only inhibition, or a rising curve; inactive = flat fitted curve, though single readings scatter; no compound was filed as active;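 also: 0% = full activity with enzyme and -100% = basal without enzyme; dose as in the result columns while the protocol names 77 µM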
Rango complex inh: qHTS Assay for Inhibitors of Rango (Ran-regulated importin-beta cargo) - Importin beta complex formation | hit rate 0.031% among 340,000 | Rango CFP/YFP FRET sensor + importin beta, 45 min | Importin subunit beta-1 (Homo sapiens), Q14974 | Potency, µM (doses to about 92.2 µM), for the others: at the top dose inhibition of complex formation; active = rising FRET ratio curve, often small or poorly fitted; inconclusive = mostly compound fluorescence or quenching in the first reads; inactive = flat curves in all reads;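 also: potency is read from the fitted curve at half-maximal effect; 0% = DMSO wells and 100% = buffer wells lacking importin beta; nearly all actives have a fitted effect of over 15% in size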
Target sequence (Q14974 whole entry, looked up): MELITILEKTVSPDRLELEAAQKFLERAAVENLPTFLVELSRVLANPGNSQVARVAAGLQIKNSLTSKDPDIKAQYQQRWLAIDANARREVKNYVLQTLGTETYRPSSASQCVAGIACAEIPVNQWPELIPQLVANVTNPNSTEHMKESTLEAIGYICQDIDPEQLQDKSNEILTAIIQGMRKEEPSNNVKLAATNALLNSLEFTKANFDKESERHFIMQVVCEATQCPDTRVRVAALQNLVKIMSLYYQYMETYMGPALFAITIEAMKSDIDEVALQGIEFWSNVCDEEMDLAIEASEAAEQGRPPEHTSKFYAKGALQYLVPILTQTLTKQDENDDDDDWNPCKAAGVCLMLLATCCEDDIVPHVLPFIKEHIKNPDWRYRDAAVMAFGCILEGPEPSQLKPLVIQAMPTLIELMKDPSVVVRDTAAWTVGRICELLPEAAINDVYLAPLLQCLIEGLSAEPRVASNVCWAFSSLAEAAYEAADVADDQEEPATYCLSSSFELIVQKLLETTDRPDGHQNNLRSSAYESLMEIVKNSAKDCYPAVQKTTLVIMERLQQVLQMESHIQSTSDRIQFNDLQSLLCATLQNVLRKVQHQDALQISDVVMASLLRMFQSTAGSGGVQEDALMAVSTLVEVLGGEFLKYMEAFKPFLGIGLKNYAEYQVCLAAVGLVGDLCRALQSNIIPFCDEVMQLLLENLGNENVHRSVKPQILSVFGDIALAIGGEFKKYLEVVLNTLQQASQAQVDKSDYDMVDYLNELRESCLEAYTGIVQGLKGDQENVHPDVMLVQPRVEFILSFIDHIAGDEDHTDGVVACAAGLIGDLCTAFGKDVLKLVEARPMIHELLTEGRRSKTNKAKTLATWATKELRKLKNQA
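Inhibition scored from the CFP 486 nm/YFP 530 nm FRET ratio 45 min after adding 0.125 microM importin beta to 50 nM Rango biosensor preincubated 5 min with compound (room temperature, PBS with DTT, Tween-20, BSA). No-importin wells as positive control.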
Starred values were filed as active, the others as inactive; ? = inconclusive; . = not tested or not shown; & = joins results of further samples. Not all compounds are listed, so the mix of outcomes need not match the whole.

SMILES | miR-21 FLuc | Rango release inh | GLA inh pH 4.5 | Rango complex inh
Cc1ccc(C2Nc3ccccc3-c3nc4ccccc4n32)o1 (stereo not drawn) | 0% | -20% | -8 | -0.4%
Nc1cc2c([N+](=O)[O-])cccc2o1 | -9% | -4% | -5 | 9.6%
CCOC(=O)C1CCN(C(=O)CSc2ccccc2Cl)CC1 | -10% | -2% | 6 | -0.4%
O=C(COc1ccc2ccc(=O)oc2c1)NC(Cc1ccc(Cl)cc1)C(=O)O (stereo not drawn) | 0% | 6% | . | 3.9%
c1ccc(CCn2c(C3CC3)nc3ccccc32)cc1 | -2% | -14% | 5 | -0.3%
Cc1cccc(S(=O)(=O)c2c(C)cc(C)[nH]c2=O)c1 | 3% | 0% | . | 4.5%
CCc1cccc(C)c1N(C(=O)Cn1c(COC)nc2ccccc21)C(C)COC (stereo not drawn) | -2% | 32% | 3 | -0.2%
CC(=O)Oc1ccc(C2=NN(c3ccccc3)C(c3ccccc3)C2)cc1 (stereo not drawn) | 1% | -6% | . | 1.0%
Cc1ccc2c(c1)c1nnc(SCC(=O)N3CCN(c4ccc(F)cc4)CC3)nc1n2CC(=O)O | -3% | 8% | -6 | -3.5%
CN(CC(=O)Nc1ccc(F)cc1)C(=O)CSc1nc2ncc(Cl)cc2[nH]1 | 5% | -7% | -10 | -0.5%
O=C(Nc1ccc(N2C(=O)C3C4C=CC(C4)C3C2=O)cc1)Nc1nnc(C(F)(F)F)s1 (stereo not drawn) | -8% | 1% | -9 | -2.2%
COc1ccccc1-n1cnnc1SCC(=O)Nc1ccccc1 | -21% | -17% | . | -0.1%
CC1CCCC(C)N1C(=O)COC(=O)c1ccc(Br)c(S(=O)(=O)N2CCOCC2)c1 (stereo not drawn) | . | -9% | . | -1.8%
O=C(Cc1ccccc1)c1ccc(N2CCOCC2)cc1 | . | 2% | . | 0.0%
NCCCC[C@H](NC(=O)C1CCNCC1)c1nnc([C@@H](N)Cc2ccc(O)cc2)o1 | -1% | -9% | 2 | -4.7%
COc1cccc(C(=O)Cn2c(=N)n(C)c3ccccc32)c1 | 13% | -13% | 3 | 0.4%
Cc1ccc(C(=O)NC(=S)N(C)Cc2ccccc2)cc1 | . | -11% | . | -0.8%
O=C(Cc1ccccc1)NNC(=O)c1cnccn1 | -1% | 3% | -6 | -1.8%
Cc1csc(NC(=O)CSc2[nH]c(=O)ncc2C)n1 | . | -3% | . | -2.4%
CC(=O)Nc1ccc(NC(=O)C2CC(=O)N(c3cccc(C)c3C)C2)cc1 (stereo not drawn) | -1% | -4% | 3 | -1.5%
CC(C)=CCN1CCN(Cc2cc3ccccc3[nH]2)CC1CCO (stereo not drawn) | 0% | -11% | . | -2.0%
OCCCNC(=S)Nc1ccc(Br)cc1Cl | -24% | 15% | 5 | -0.6%
O=C(CN1CCN(c2ccccn2)CC1)Nc1ccc(F)cc1F | -25% | -4% | . | 0.8%
COc1cccc(S(=O)(=O)Nc2ccc(C(=O)NCc3ccco3)cc2)c1 | -10% | -7% | 0 | 1.9%
NC1=NC(c2ccccc2C(F)(F)F)N(c2ccc(F)c(Cl)c2)C(N)=N1 (stereo not drawn) | 1% | 19% | . | -1.9%

Part of the list above, with two lines to a compound.
Below each SMILES: miR-21 FLuc	Rango release inh	GLA inh pH 4.5	Rango complex inh
COc1ccccc1-n1cnnc1SCC(=O)Nc1ccccc1
→ -21%	-17%	.	-0.1%
CC1CCCC(C)N1C(=O)COC(=O)c1ccc(Br)c(S(=O)(=O)N2CCOCC2)c1 (stereo not drawn)
→ .	-9%	.	-1.8%
O=C(Cc1ccccc1)c1ccc(N2CCOCC2)cc1
→ .	2%	.	0.0%
NCCCC[C@H](NC(=O)C1CCNCC1)c1nnc([C@@H](N)Cc2ccc(O)cc2)o1
→ -1%	-9%	2	-4.7%
COc1cccc(C(=O)Cn2c(=N)n(C)c3ccccc32)c1
→ 13%	-13%	3	0.4%
Cc1ccc(C(=O)NC(=S)N(C)Cc2ccccc2)cc1
→ .	-11%	.	-0.8%
O=C(Cc1ccccc1)NNC(=O)c1cnccn1
→ -1%	3%	-6	-1.8%
Cc1csc(NC(=O)CSc2[nH]c(=O)ncc2C)n1
→ .	-3%	.	-2.4%
CC(=O)Nc1ccc(NC(=O)C2CC(=O)N(c3cccc(C)c3C)C2)cc1 (stereo not drawn)
→ -1%	-4%	3	-1.5%
CC(C)=CCN1CCN(Cc2cc3ccccc3[nH]2)CC1CCO (stereo not drawn)
→ 0%	-11%	.	-2.0%
OCCCNC(=S)Nc1ccc(Br)cc1Cl
→ -24%	15%	5	-0.6%
O=C(CN1CCN(c2ccccn2)CC1)Nc1ccc(F)cc1F
→ -25%	-4%	.	0.8%
COc1cccc(S(=O)(=O)Nc2ccc(C(=O)NCc3ccco3)cc2)c1
→ -10%	-7%	0	1.9%

Carrying on.
SMILES | miR-21 FLuc | Rango release inh | GLA inh pH 4.5 | Rango complex inh
O=C1c2cccnc2C(=O)N1Cc1ccc(S(=O)(=O)NCc2ccco2)cc1 | -11% | -8% | . | 0.1%
CCc1c(C)nc2ncnn2c1NCCc1ccccc1 | 11% | 4% | 4 | 4.4%
O=C(N/N=C1\CCCc2ccccc21)c1cccc(Br)c1 | -46% | 0% | -5 | 4.9%
COc1ccc(CC2c3cc(OC)c(OC)cc3CC[N+]2(C)CCC(=O)OCCCCCOC(=O)CC[N+]2(C)CCc3cc(OC)c(OC)cc3C2Cc2ccc(OC)c(OC)c2)cc1OC (stereo not drawn) | . | -13% | . | -0.5%
O=C(Cc1ccccc1)NCCS(=O)(=O)N1CCN(c2ccccc2)CC1 | . | 19% | . | 0.4%
O=C(Nc1ccccc1F)Nc1cccnc1Cl | . | 9% | . | -0.1%
CCOC(=O)Cc1nc2cc(Cl)ccc2o1 | -1% | -12% | 2 | -1.4%
C=CCNC(=S)Nc1ccc(C)cc1[N+](=O)[O-] | -20% | -5% | 4 | 0.1%
CCN(CC)S(=O)(=O)c1ccc(/C(O)=C2/C(=O)C(=O)N(CCOC)C2c2ccccc2)cc1 (stereo not drawn) | -4% | -12% | -9 | -2.3%
CC(=O)c1cccc(NC(=O)c2ccc(OCc3c(C)noc3C)cc2)c1 | . | -1% | . | -0.4%
CC1CC(C)CN(CCCSc2ccccc2)C1 (stereo not drawn) | 1% | -5% | 0 | -3.3%
CCOC(=O)Cn1cc([N+](=O)[O-])c(OC)n1 | 1% | -13% | -3 | -0.2%
CCC(c1nnnn1Cc1cccs1)N1CCN(C(=O)c2ccco2)CC1 (stereo not drawn) | -1% | 14% | 7 | -0.8%
Cc1cc(Cn2ccnc2)c(C)c([N+](=O)[O-])c1Cn1ccnc1 | -11% | 8% | . | -0.6%
O=C(CN1CCN(Cc2ccccc2)CC1)N1CCN(c2ccccc2)CC1 | -11% | -11% | -1 | 3.5%
CC(=O)Nc1ccc(S(=O)(=O)NC(CC(=O)NCCc2ccccc2)C(C)C)cc1 (stereo not drawn) | -28% | 0% | 13 | 2.3%
CCOC(=O)N1CCN(c2c(NCCCN(CC)Cc3ccccc3)c(=O)c2=O)CC1 | 0% | 1% | 6 | -4.8%
CCCCCc1nnc(NC(=O)Cc2cccs2)s1 | -8% | -7% | 6 | -8.0%
CC(=O)Oc1ccc2nc(CN3C(=O)c4ccc([N+](=O)[O-])cc4C3=O)oc(=O)c2c1 | 2% | 22% | 8 | -0.5%
CCc1noc(C)c1C(=O)N1CCCC1 | 0% | 2% | -13 | 5.2%
COc1ccc(-c2ccc(=O)n(Cc3c(F)cccc3Cl)n2)cc1 | -42% | -2% | . | 3.6%
CCc1sc(C(=O)Nc2ccc(OC)c(S(=O)(=O)N3CCOCC3)c2)cc1C | . | -1% | . | -0.1%
COc1c2occc2c(OC)c2c(=O)cc(C)oc12 | -9% | ? | 3&2&0 | 1.5%
CN(C)CCNC(C(=O)Nc1cccc(C(F)(F)F)c1)c1ccccc1 (stereo not drawn) | -3% | 1% | -5 | 6.3%
CCOC(=O)c1c(C)[nH]c(C)c1S(=O)(=O)NCCc1ccco1 | -5% | 5% | . | 6.1%
SMILES | miR-21 FLuc | Rango release inh | GLA inh pH 4.5 | Rango complex inh
Cc1csc(Sc2ccc(C(=O)OCC(=O)Nc3ccc(F)cc3[N+](=O)[O-])cc2[N+](=O)[O-])n1 | -2% | -17% | -7 | -1.7%
CCCN1Cc2cccc(C(=O)NCc3ccccc3)c2C1=O | -3% | -8% | -1 | 1.3%
CCO/C=C1/C(=O)N(Cc2ccccc2)C(=O)c2ccccc21 | -4% | -27% | -1 | ?
Cc1cccc(C)c1OCCOCCN1CCN(C)CC1 | -3% | -4%&-3% | -5 | ?
CCOC(=O)C1CCN(C(=O)CCCNC(=O)Cn2cnc3sc(C)c(C)c3c2=O)CC1 | 3% | 1% | . | 0.0%
Cc1ccc(CNC(=O)COC(=O)c2cnc(C)cn2)cc1 | 1% | -10% | 2 | -0.1%
Cn1cc(/C=C2\SC(=S)N(NC(=O)c3cccc(Cl)c3)C2=O)c2ccccc21 | -2% | 6% | 0 | ?
COC(=O)c1cc(CN2C(=O)c3ccccc3C2=O)c(O)c([N+](=O)[O-])c1 | 0% | 1% | . | -0.5%
Cc1cc(C(=O)OCC(=O)c2cccc([N+](=O)[O-])c2)c2ccccc2n1 | -3% | -14% | 1 | -0.6%
CC(=O)Nc1ccc(NC(=O)CCS(=O)(=O)c2ccc3c(c2)oc(=O)n3C)cc1 | 1% | -5% | . | 4.5%
O=C(CCNC(=O)C1CCN(S(=O)(=O)c2ccc(F)cc2)CC1)Nc1ccccc1 | 2% | -7% | . | 0.3%
CN(C)S(=O)(=O)c1ccc2c(c1)nc(CCC(=O)Nc1ccc(N3CCOCC3)cc1)n2C | -6% | 5% | 6 | 8.0%
CC(=O)N1CC(C)Sc2ccc(S(=O)(=O)NCc3ccc(F)cc3)cc21 (stereo not drawn) | 12% | 14% | . | -0.8%
O=C(O)CCC(=O)OCCCc1cc2ccccc2c(=O)o1 | . | 8% | . | -0.8%
N#C/C(=C/c1ccc(N2CCOCC2)o1)c1ccc(Br)cc1 | 0% | ? | 2 | ?
C=CCSc1nnc2n(CCc3ccccc3)c(=O)c3c4c(sc3n12)COC(C)(C)C4 | -3% | 13% | 2 | -0.4%
CCCCOc1ccc(C(=O)NN2CCOCC2)cc1 | . | ? | . | -1.0%
CC(=O)Nc1ccc2ccc3cccc4ccc1c2c34 | -19% | ? | 6 | ?
COc1ccc2c(c1OC)C(=O)OC2Nn1cncn1 (stereo not drawn) | -2% | -25% | 1 | -8.0%
CC(=O)NC(Cc1ccccc1)C(=O)NC1CCN(C(=O)c2ccc([N+](=O)[O-])cc2)CC1 (stereo not drawn) | -3% | 9% | 5 | 0.7%
O=C(NC(=S)Nc1cccc2cc(O)ccc12)c1ccccc1Br | 14% | -1% | . | -1.8%
COc1ccccc1-c1noc(-c2ccccc2)n1 | -51% | 1% | 5 | -2.9%
Cc1occc1C(=O)N/N=C/c1ccc[nH]1 | . | 0% | . | -1.1%
Cc1ccc(N(C(=O)C(F)(F)F)C(C(=O)NC2CCCCC2)c2ccncc2)cc1C (stereo not drawn) | -7% | -2% | 4 | 3.1%
COc1cc(C=O)ccc1Oc1nc(Nc2ccc(F)cc2F)nc(N2CCOCC2)n1 | -12% | -5% | -7 | -3.4%
CCOC(=O)C1CCCN(C(=O)Cn2ncc3c([nH]c4ccc(C)cc43)c2=O)C1 (stereo not drawn) | 3%&9% | 11% | . | -3.4%
O=S1(=O)CCN(OCc2ccc(F)cc2Cl)CC1 | -3% | -5% | 1 | 1.3%
O=C(Cn1nc(-c2ccccc2)ccc1=O)NCCN1CCN(c2cccc(Cl)c2)CC1 | 16% | -1% | -7 | 0.6%

Looked up above.
Value for N#C/C(=C/c1ccc(N2CCOCC2)o1)c1ccc(Br)cc1 in GLA inh pH 4.5: 2
Value for Cc1cccc(C)c1OCCOCCN1CCN(C)CC1 in Rango release inh: -4%&-3%

Screening results as filed in PubChem.
